# CtBP-E1A inh – inhibitors of CtBP/E1A interaction; activity change, % (test concentration not listed); AID 651724; 340,000 tested, 0.49% active; AlphaScreen GST-E1A/His-CtBP binding, 1536-well; hits give low values; control for the full effect not named in the record; in the data active means activity change below about -65%; inconclusive means about -30% to -65%; inactive means above about -30%; also: % is scaled to controls: 0 for no effect and ±100 for the full control effect; compound concentration not given in the record
#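 In 5 uL wells, 23 nL compound meets equimolar GST-E1A and His-CtBP (5X stock 125 nM each) for 2 h, 37 °C. Beads (5X, 50 ug/mL) then 1 h, 37 °C, dark.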
# PINK1 modulator – changes PINK1 expression | PINK1 immunofluorescence, high-content cytometry, 24 h | Potency, µM (doses to about 76.6 µM), for the others: at the top dose activation (PINK1 increase), hits mostly activators | 410,000 tested, 0.2% active | AID 624263; active = well fitted activation curve with a large enough effect; inconclusive = small, poorly fitted or top-dose-only effect; inactive = flat fitted curve, though single readings scatter; cell line not stated here;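 also: potency is read from the fitted curve at half-maximal effect; % of control where 0% means no effect; nearly all actives have a fitted effect of over 65% in size; a mitochondrial uncoupler was the plate control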
#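 Cells are seeded, rested 12 hours, then given compound at five concentrations or DMSO for 24 hours. After fixation, blocking and antibody staining, PINK1 amount and mitochondrial localization are scored; CCCP serves as control.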
# Six1-Eya2 blk – inhibitors of human Six1/Eya2 interaction | Q15475+O00167 | AlphaScreen GST-Six1/His-Eya2 binding, biochemical; hits give low values; control for the full effect not named in the record | activity change, % (no concentration beside the values) | 360,000 tested, 0.56% active | AID 651725; in the data active = activity change below about -65%; inconclusive = about -30% to -65%; inactive = above about -30%; also: % is scaled to controls: 0 for no effect and ±100 for the full control effect; compound concentration not given in the record
# Target sequence (O00167 whole entry, looked up): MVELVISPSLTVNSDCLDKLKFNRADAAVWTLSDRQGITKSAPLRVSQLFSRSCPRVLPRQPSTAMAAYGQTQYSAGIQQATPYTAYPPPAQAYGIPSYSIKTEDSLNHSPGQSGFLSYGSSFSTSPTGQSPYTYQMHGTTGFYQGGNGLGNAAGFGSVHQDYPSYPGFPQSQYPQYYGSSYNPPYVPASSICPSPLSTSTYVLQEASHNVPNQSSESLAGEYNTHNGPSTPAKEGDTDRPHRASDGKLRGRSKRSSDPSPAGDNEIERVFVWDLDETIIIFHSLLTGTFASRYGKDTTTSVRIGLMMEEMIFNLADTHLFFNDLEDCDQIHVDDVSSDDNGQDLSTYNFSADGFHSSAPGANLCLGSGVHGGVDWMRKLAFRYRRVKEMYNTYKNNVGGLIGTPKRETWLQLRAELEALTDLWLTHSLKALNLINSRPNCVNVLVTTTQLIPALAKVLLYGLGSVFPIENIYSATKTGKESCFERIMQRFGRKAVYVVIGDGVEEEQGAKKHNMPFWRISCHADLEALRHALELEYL
# Target sequence (Q15475 whole entry, looked up): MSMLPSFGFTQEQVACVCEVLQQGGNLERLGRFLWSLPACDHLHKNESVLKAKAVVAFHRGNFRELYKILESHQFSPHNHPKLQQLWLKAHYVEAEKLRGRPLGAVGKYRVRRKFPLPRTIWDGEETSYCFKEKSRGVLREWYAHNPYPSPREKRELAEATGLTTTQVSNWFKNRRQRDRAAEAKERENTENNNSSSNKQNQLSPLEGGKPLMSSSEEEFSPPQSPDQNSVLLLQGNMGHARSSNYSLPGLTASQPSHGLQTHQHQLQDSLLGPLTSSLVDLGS
#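 GST-Six1 + His-Eya2 (5X stock: 250/500 nM); Tris pH 8.0, 300 mM NaCl, 0.05% BSA, 0.02% Tween 20; GSH donor/Ni acceptor beads; 1 h 37 °C dark; AlphaScreen readout.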
# D2 ag – human D2 receptor agonism in beta-arrestin assay. P14416. 360,000 tested, 0.084% active. activation, % (test concentration not listed). DiscoveRx PathHunter D2 beta-arrestin, luminescence, 90 min; 100% = 57 uM dopamine signal. AID 624465; in the data active = activation above about 40%; inconclusive = about 15% to 40%; inactive = below about 15%; also: compound concentration not given in the record; the text of the record calls up to 30% inactive
#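 Agonist mode: compounds alone added to overnight-plated D2 PathHunter cells for 90 min at 37 C, with 57 uM final dopamine (EC100) defining full response. Beta-arrestin recruitment detected by chemiluminescent reagent, read after 1 h at ambient temperature.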
# Sfp PPTase inh – Sfp phosphopantetheinyl transferase inhibition; Q9F4F7; Biochemical Sfp PPTase activity, qHTS; Potency, µM, without a hit: max response, negative = inhibition, hits mostly inhibitors; 310,000 tested, 3.5% active; active = well fitted inhibition curve with a large enough effect; inconclusive = small, poorly fitted or top-dose-only effect, or another doubt; inactive = no such curve, though single readings can be large or run the other way;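 also: the enzyme is Sfp with the accession as filed and its product quenches rhodamine fluorescence; potency is read from the fitted curve at half-maximal effect; 0% = enzyme reaction without inhibitor and -100% = no enzyme wells; top concentration of the series not given in the record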
#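 Buffer: 50 mM Hepes-Na pH 7.6, 10 mM MgCl2, 0.01% Nonidet P-40, 0.01% BSA. Enzyme 15 nM, pre-exposed to compound 15 min; substrates then added and fluorescence change tracked over 30 min.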
# TRPV1 potentiator – enhances activation of the human vanilloid receptor TRPV1. Q8NER1. TRPV1-expressing cells, Fluo-8 calcium influx, capsaicin EC20 potentiation; host cell line not named in the record; control for the full effect not named in the record. potentiation, % at 8.33 µM. 320,000 tested, 0.02% active. AID 540277; active means potentiation above 80%; inconclusive means 30% to 80%; inactive means below 30%; also: 0% is about no effect
#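 Fluo-8 calcium influx in TRPV1-expressing cells, kinetic read (ex 480/em 520 nm). Compound added and read 3 min for agonist activity, followed by capsaicin at EC20 final and 2 min further read for enhancement.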
# D2 PAM – potentiates the human D2 dopamine receptor allosterically | potentiation, % (concentration not given with the values) | DiscoveRx D2 beta-arrestin cells, luminescence, 90 min; 100% = 57 uM dopamine signal | 360,000 tested, 0.23% active | P14416; active = potentiation of 50% or more; inconclusive = 30% to 50%; inactive = 30% or less;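 also: compound concentration not given in the record; tested on top of an EC20 dose of dopamine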
#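 PathHunter D2 cells, attached overnight at 37 deg C, received compound in DMSO plus dopamine at EC20 (50 nM final) for 90 min at 37 deg C. Beta-arrestin recruitment was read as luminescence after 1 h with detection reagent at ambient temperature.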
# Numbers without * were called inactive; ? = inconclusive; . = no result given; [ ] = another dose, or the depositor's remark.
# Order of results: CtBP-E1A inh	PINK1 modulator	Six1-Eya2 blk	D2 ag	Sfp PPTase inh	TRPV1 potentiator	D2 PAM
> O=S(=O)(c1ccccc1)N1CN(c2ccc(F)cc2F)c2nc3ccccc3nc21
    15.4	4.3%	3.8	-3.6	.	.	-6.5
> Cc1ccc(/C=N/NC(=O)c2ccc(Br)o2)s1
    -3.1	5.5%	-0.4	-4.3	3.8%	-8.3	-13.5
> CN(C)CCCN1C(=O)c2oc3ccc(Cl)cc3c(=O)c2C1c1cccnc1 (stereo not given)
    -9.4	-0.8%	-3.1	-2.5	-1.6%	?	-4.7
> Cc1ccccc1C(=O)Nc1ccnn1C1CCN(C(C)Cc2ccccc2F)CC1 (stereo not given)
    1.2	0.8%	-12.8	-2.9	11.9%	12.9	-25.7
> O=C(CNCc1ccccn1)Nc1ccc([N+](=O)[O-])cc1C(=O)Nc1ccccc1F
    -88.6*	1.5%	-93.3*	-1.6	3.3%	0.7	2.6
> N#CC1C=Cc2ccccc2N1C(=O)c1ccccc1 (stereo not given)
    9.2	4.6%	1.8	-1.0	10.5%	?	-0.3
> O=C(Nn1c(-c2ccccc2)nc2ccccc2c1=O)c1cccs1
    -1.0	2.6%	-1.8	-2.7	-20.4%	5.3	-13.7
> O=C(N/C=C/n1cnc2cc(C(F)(F)F)ccc21)c1ccccc1F
    7.8	6.9%	-0.5	0.7	3.1%	-13.3	-8.4
> Cc1sc2nc(CN3CCCC3)nc(NCc3ccncc3)c2c1C
    7.3	-0.8%	-0.9	-3.7	14.5%	1.1	-7.2
> CC(=O)c1ccc(NC(=O)Nc2cccc(Cl)c2)cc1
    -8.7	-1.8%	-17.3	-1.8	6.2%	-10.7	-18.8
> Cc1cccc(C)c1NC(=O)Nc1nc(CN(C)C)cs1
    -1.6	-0.2%	-1.7	-3.6	.	.	-8.2
> CN(CC(=O)Nc1ccc(OC(F)(F)F)cc1)C1CCCCC1
    8.5	6.8%	8.2	-2.3	-6.0%	-18.5	-23.1
> Cc1c(CCOC(=O)C23CC4CC(CC(C4)C2)C3)sc[n+]1CC#N
    -17.1	-1.5%	-5.9	-0.3	6.8%	-1.9	-8.5
> C[C@@H]1CN([C@@H](C)CO)S(=O)(=O)c2ccc(Br)cc2O[C@@H]1CN(C)C(=O)C1CC1
    -5.4	2.1%	7.1	-4.5	.	.	-0.5
> Cc1onc(-c2c(Cl)cccc2Cl)c1NC(=O)NNc1c(Cl)cncc1Cl
    0.0	-0.5%	25.1	-2.7	-8.3%	3.3	-6.2
> COc1ccc(C2=NN(CC(=O)NCC(OC)OC)C(=O)CC2)cc1
    .	0.9%	6.1	-4.4	17.5%	-15.7	-5.4
> COc1cc(C(C#N)N2N=C(c3ccccc3)CC2c2ccccc2)ccc1O (stereo not given)
    5.3	-1.0%	0.0	-1.0	-2.0%	-9.7	-12.2
> O=c1cc(Nc2ccc3c(c2)OCCO3)[nH]c(=O)n1-c1ccc(Br)cc1
    8.6	.	2.9	0.6	-9.4%	-37.4	-8.6
> CN(C)CCNC(=S)Nc1ccc(F)c(F)c1F
    0.5	-1.6%	6.7	-3.5	-12.7%	8.4	-6.9
> COC(=O)C1C(O)=C(C=Nc2ccccc2)C(=O)CC1(C)C (stereo not given)
    1.1	-1.4%	-0.9	2.9	16.4%	-1.7	-10.1

# Record cards, from the list above.
# COC(=O)C1C(O)=C(C=Nc2ccccc2)C(=O)CC1(C)C (stereo not given) in the list: CtBP-E1A inh: 1.1; PINK1 modulator: -1.4%; Six1-Eya2 blk: -0.9; D2 ag: 2.9; Sfp PPTase inh: 16.4%; TRPV1 potentiator: -1.7; D2 PAM: -10.1
# COc1ccc(C2=NN(CC(=O)NCC(OC)OC)C(=O)CC2)cc1 in the list: CtBP-E1A inh: .; PINK1 modulator: 0.9%; Six1-Eya2 blk: 6.1; D2 ag: -4.4; Sfp PPTase inh: 17.5%; TRPV1 potentiator: -15.7; D2 PAM: -5.4
# C[C@@H]1CN([C@@H](C)CO)S(=O)(=O)c2ccc(Br)cc2O[C@@H]1CN(C)C(=O)C1CC1 in the list: CtBP-E1A inh: -5.4; PINK1 modulator: 2.1%; Six1-Eya2 blk: 7.1; D2 ag: -4.5; Sfp PPTase inh: .; TRPV1 potentiator: .; D2 PAM: -0.5

# Grouped by structure, the compounds so far containing four or more nitrogen atoms (6)
# Order of results: CtBP-E1A inh	PINK1 modulator	Six1-Eya2 blk	D2 ag	Sfp PPTase inh	TRPV1 potentiator	D2 PAM
> O=S(=O)(c1ccccc1)N1CN(c2ccc(F)cc2F)c2nc3ccccc3nc21
    15.4	4.3%	3.8	-3.6	.	.	-6.5
> Cc1ccccc1C(=O)Nc1ccnn1C1CCN(C(C)Cc2ccccc2F)CC1 (stereo not given)
    1.2	0.8%	-12.8	-2.9	11.9%	12.9	-25.7
> O=C(CNCc1ccccn1)Nc1ccc([N+](=O)[O-])cc1C(=O)Nc1ccccc1F
    -88.6*	1.5%	-93.3*	-1.6	3.3%	0.7	2.6
> Cc1sc2nc(CN3CCCC3)nc(NCc3ccncc3)c2c1C
    7.3	-0.8%	-0.9	-3.7	14.5%	1.1	-7.2
> Cc1cccc(C)c1NC(=O)Nc1nc(CN(C)C)cs1
    -1.6	-0.2%	-1.7	-3.6	.	.	-8.2
> Cc1onc(-c2c(Cl)cccc2Cl)c1NC(=O)NNc1c(Cl)cncc1Cl
    0.0	-0.5%	25.1	-2.7	-8.3%	3.3	-6.2

# Next part:
# Order of results: CtBP-E1A inh	PINK1 modulator	Six1-Eya2 blk	D2 ag	Sfp PPTase inh	TRPV1 potentiator	D2 PAM
> CCOc1ccc(S(=O)(=O)N(CC(=O)NC2CCCCC2C)Cc2ccco2)cc1 (stereo not given)
    -3.2	0.5%	6.2	-4.0	4.7%	-10.3	-28.9
> O=C(NCc1cccs1)C1CCCN1S(=O)(=O)c1ccccc1F (stereo not given)
    7.0	7.6%[38.3 µM]	2.2	-1.6	0.1%	16.6	1.8
> COc1cccc(C(=O)Nc2ccc3c(C)cc(=O)oc3c2)c1
    -0.3	3.1%	-2.3	-0.3	1.9%	8.6	-2.8
> COCc1ccc(C(=O)N2CCCC(Nc3ccc4c(c3)OCCO4)C2)o1 (stereo not given)
    5.7	0.0%	-4.4	0.3	15.1%	-7.6	4.3
> CCOC(=O)C1CCN(Cc2ccc(OCc3ccccc3)cc2)CC1
    2.7	17.9%	0.7	11.4	-20.1%	-23.8	0.2
> O=C(C[C@@H]1C[C@H]2c3cc(NC(=O)NC4CCCCC4)ccc3O[C@H]2[C@H](CO)O1)NC1CCCCC1
    0.0	-0.1%	-8.5	-0.3	.	.	.
> COc1ccc(S(=O)(=O)n2cnc3ccccc32)cc1
    4.9	0.2%	8.5	-1.7	14.8%	-2.1	-8.0
> C/C=C/c1ccc(OCC(=O)N(C)CC(=O)Nc2ccc(F)cc2)c(OC)c1
    -14.3	0.8%	4.8	-1.5	.	-10.0	-6.2
> C[C@H](CO)N1C[C@H](C)[C@@H](CN(C)S(=O)(=O)c2ccc(F)cc2)Oc2c(NC(=O)Nc3ccc4c(c3)OCO4)cccc2C1=O
    -24.0	2.2%	-18.8	0.7	.	.	-6.9
> O=C(O)C1NCCc2ccccc21 (stereo not given)
    9.2	.	0.3	-2.1	4.7%	-2.1	-4.8
> O=C(Oc1ccc2ccc(=O)oc2c1)c1ccco1
    6.8	0.6%	-4.5	-2.6	4.8%	-19.5	6.6
> C=CCn1c(C)cc(C(=O)COC(=O)c2cncc(Br)c2)c1C
    -6.8	-0.8%	-12.7	-0.2	.	-18.5	1.4
